# L3MBTL1 inh – L3MBTL1 (human) inhibition | actives 0.66% (n = 230,000) | Q9Y468 | AlphaScreen L3MBTL1–H3K9me1 peptide binding | Potency, µM (titrated, usually from 57.1 µM), inactives show at the top dose activity, negative = inhibition, usual class: inhibitors; further: on the % scale 0 is the no-effect control and ±100 the full control effect; nearly all actives have a fitted effect of over 60% in size
#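 L3MBTL1 50 nM + b-AHA-H3(1-15)K9me1 75 nM, 30 min RT; compound added, 30 min RT; streptavidin donor/Ni-chelate acceptor beads 10 ug/mL each final, 30 min RT dark; AlphaScreen read.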
# Lamin A splicing – changes lamin A minigene splicing in HeLa cells. HeLa LMNA splicing GFP/RFP minigene ratio, 48 h. Potency, µM (doses to about 46.1 µM), for the others: top-dose ratio change, negative = inhibition, hits mostly inhibitors. actives 0.01% (n = 200,000); active means well fitted inhibition curve with a large enough effect in the signal ratio, with a control signal flat, not every such curve was filed as active; inconclusive means small, poorly fitted or top-dose-only effect, or effect the other way, or a change in a side signal; the % refers to the signal ratio; further: on the % scale 0 is the no-effect control and ±100 the full control effect
#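 S3 HeLa stable clones carrying a lamin A-EGFP splicing minigene plus DsRed2 were seeded at 600 cells/well in Opti-MEM with 2% FBS, pin-dosed and incubated 48 h at 37°C. Acumen cytometry (488 nm) gave the GFP/RFP total-intensity ratio.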
# RECQ1 inh – blocks DNA unwinding by human RECQ1; RECQ1 DNA unwinding, red fluorescence kinetic read; Potency, µM (doses to about 57.3 µM), for inactives: top-dose activity, negative = inhibition, usual class: inhibitors; actives 0.54% (n = 240,000); AID 2549;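 further: plate controls were vehicle for no effect and no enzyme for full effect; nearly all actives have a fitted effect of over 30% in size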
# Target sequence (P46063 whole entry, looked up): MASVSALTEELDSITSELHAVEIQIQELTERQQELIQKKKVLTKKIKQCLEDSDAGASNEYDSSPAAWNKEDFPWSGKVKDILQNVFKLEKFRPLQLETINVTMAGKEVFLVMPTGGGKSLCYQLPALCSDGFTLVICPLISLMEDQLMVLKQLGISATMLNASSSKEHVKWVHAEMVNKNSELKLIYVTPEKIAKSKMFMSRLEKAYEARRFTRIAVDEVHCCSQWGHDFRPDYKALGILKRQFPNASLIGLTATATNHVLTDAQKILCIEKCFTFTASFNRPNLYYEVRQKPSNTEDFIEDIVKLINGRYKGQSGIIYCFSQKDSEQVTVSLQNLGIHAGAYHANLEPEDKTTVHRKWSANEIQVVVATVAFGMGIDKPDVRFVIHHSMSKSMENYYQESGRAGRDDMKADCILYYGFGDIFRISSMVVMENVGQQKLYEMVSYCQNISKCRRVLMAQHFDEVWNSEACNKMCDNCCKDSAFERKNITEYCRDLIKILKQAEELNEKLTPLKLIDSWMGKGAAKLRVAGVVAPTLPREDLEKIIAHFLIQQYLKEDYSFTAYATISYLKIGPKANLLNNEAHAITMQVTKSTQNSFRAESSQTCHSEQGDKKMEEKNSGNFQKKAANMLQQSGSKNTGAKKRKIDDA
#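 RECQ1T1 50 nM; forked duplex (20 bp + 30-nt ss tails) 200 nM, ATP 2 mM final; pH 8.0, 2 mM MgCl2, 2.5 ug/ml poly(dI-dC); 15 min compound preincubation; discontinuous kinetic read over 2 h at RT.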
# SMN2 splice up – SMN2 splice variant enhancement; HEK293 SMN2-luciferase splicing reporter, luminescence, 30-36 h; actives 2.8% (n = 210,000); Potency, µM (top dose mostly 46.1 µM), for inactives: at the highest dose activity change, positive = activation, hits mostly activators; further: % of control where 0% means no effect; nearly all actives have a fitted effect of over 55% in size
#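 HEK293 cells carry an SMN2 minigene-luciferase reporter in which exon 7 inclusion puts luciferase in frame. Cells were seeded at 2000 cells/well, attached for 10-12 hours, then exposed to compounds for 30-36 hours at 37C before ONE-Glo luminescence.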
# Luc counter – Kinase-Glo luciferase inhibition (counter-screen); Kinase-Glo luciferase, ATP luminescence, 8 min; actives 0.28% (n = 200,000); AID 1379; Potency, µM (highest dose often 38.3 µM), without a hit: top-dose activity change, negative = inhibition, usual class: inhibitors; further: on the % scale 0 is the no-effect control and ±100 the full control effect; nearly all actives have a fitted effect of over 60% in size
#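 Inhibition of Kinase-Glo luciferase light generation was assessed at 10 uM ATP in pH 7.2 imidazole buffer, with luminescence measured after eight minutes at ambient temperature.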
# Tau ThT inhib – blocks human tau fibril formation measured by thioflavin T | P10636 | recombinant tau K18 P301L (four-repeat tau fragment), heparin-induced fibrillization, ThT fluorescence | Potency, µM (titrated, usually from 57.4 µM), for the others: at the top dose activity, negative = inhibition, hits mostly inhibitors | actives 2.1% (n = 270,000) | AID 1460; further: on the % scale 0 is the no-effect control and ±100 the full control effect; nearly all actives have a fitted effect of over 55% in size
# Target sequence (P10636 561-689 P618L limits assumed): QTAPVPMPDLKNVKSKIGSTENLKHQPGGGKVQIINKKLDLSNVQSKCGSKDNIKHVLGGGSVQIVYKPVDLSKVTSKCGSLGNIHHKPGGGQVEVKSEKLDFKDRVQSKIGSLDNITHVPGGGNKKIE
#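 Aggregation was driven by heparin (20 uM final) acting on recombinant tau […] bearing P301L in 100 mM sodium acetate pH 7; fibrils were detected with Thioflavin T.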
# * hit, by the source's call; i = inactive; u = inconclusive; x = no result given; & = joins results of further samples; [ ] = another dose, or the depositor's remark. Unless noted, the call rests on the fitted dose curve; in most records, active means well fitted curve in the direction sought with a large enough effect; inconclusive means small, poorly fitted or top-dose-only effect, or another doubt; inactive means no such curve, though single readings can be large; an effect the other way counts as inactive or inconclusive. Potency means the concentration at half of the fitted maximal effect. This is a subset (hit frequency here may not be typical).
no.	compound	L3MBTL1 inh	Lamin A splicing	RECQ1 inh	SMN2 splice up	Luc counter	Tau ThT inhib
1	CN(C)C(=O)CSc1nnc([C@@H](N)Cc2ccccc2)o1	10.6%	2.0%	-3.6%	-5.8%	0.2%	-10.8%
2	CCCCCn1c(=O)c(C(=O)NCc2ccncc2)c(O)c2ccccc21	2.3%	u	10.1%	-46.2%[inhibitor]	5.8%	-13.7%
3	CCCN(CCC)c1c([N+](=O)[O-])cc(C(F)(F)F)cc1[N+](=O)[O-]	x	7.4%	-7.2%&-1.9%	-1.0%&-0.1%	-0.2%	-3.1%
4	Nc1nnc(Sc2ncccc2[N+](=O)[O-])s1	x	x	-1.7%	2.1%	-3.3%	u
5	CC1CN=C(NC(C)c2ccccc2)S1 (centres undefined)	-2.6%	x	i	1.2%	1.2%	1.8%
6	C/C(=N\Nc1cccc2ccccc12)c1c(O)n(Cc2ccccc2)c(=O)[nH]c1=O	-10.2%	-1.0%	-26.0%	-20.4%	1.2%	17.8µM*
7	COc1ccc(OCC(=O)N2CCN(Cc3nc4cc([N+](=O)[O-])ccc4n3C)CC2)cc1	5.1%	u	-20.1%	-45.0%[inhibitor]	1.8%	-8.3%
8	Cn1cccc1CNCCc1ccccc1	-9.5%	-3.7%	-1.9%	12.7%	-1.5%	-6.0%
9	C=CCC1(CN2CCCCCC2=O)C(=O)NC(=O)NC1=O	x	0.3%	-4.4%	-6.4%	13.8%	4.9%
10	CN1CCc2nc3ccc(F)cc3c(C(N)=O)c2C1	4.1%	-1.8%	5.1%	-22.1%	2.2%	-2.5%
11	C(#CCN1CCOCC1)COCc1ccccc1	2.6%	1.4%	1.1%	5.3%	1.6%	-0.2%
12	FC(F)(F)c1cccc(CN2CCCCCC2)c1	x	u	-1.6%	40.1%	1.9%	2.5%
13	O=C(C1CCCCC1)N1CCC(c2nc3c(nnn3Cc3c(F)cccc3Cl)c(=O)[nH]2)CC1	-22.8%	7.7%	-1.8%	-8.4%	-0.1%	u
14	Cc1ccc(OCC(=O)N2CCN(C3CCC(c4ccccc4)CC3)CC2)cc1 (centres undefined)	-19.7%	-9.5%[46 µM]	i	-4.4%	2.8%	u
15	CC(=O)Nc1cc(C(=O)N2CCC3(CC2)OCCO3)ccc1S(=O)(=O)c1ccc(C)cc1	8.9%	6.1%[0.0737 µM]	-10.2%	-10.8%	5.5%	1.8%
16	CCN(CC)S(=O)(=O)c1cc(NC(=O)C(C)N2CC=C(c3ccccc3)CC2)ccc1C (centres undefined)	-9.2%	u	-5.7%	-59.7%[inhibitor]	0.9%	u
17	O=P(c1ccccc1)(c1ccccc1)N1CCCCC1	1.0%	0.3%	-4.2%	x	x	3.7%
18	Cc1ccc(OCC(=O)N2CCN(Cc3ccc4c(c3)OCO4)CC2)cc1	-3.0%	-15.3%[46 µM]	i	-26.9%	2.6%	-11.9%
19	CCCCNC(=O)Nc1ccc(C(O)(C(=O)OCC)C(F)(F)F)cc1 (centres undefined)	5.6%	-11.4%	-2.9%	x	x	-5.7%
20	O=C(Cc1ccccc1)N1CCN(Cc2cccnc2)CC1	x	4.3%	i	-6.0%	0.5%	-3.8%

# Shown with one line to a screen: part of the list above.
14: Cc1ccc(OCC(=O)N2CCN(C3CCC(c4ccccc4)CC3)CC2)cc1 (centres undefined)
13: O=C(C1CCCCC1)N1CCC(c2nc3c(nnn3Cc3c(F)cccc3Cl)c(=O)[nH]2)CC1
assay / entry	14	13
L3MBTL1 inh	-19.7%	-22.8%
Lamin A splicing	-9.5%[46 µM]	7.7%
RECQ1 inh	i	-1.8%
SMN2 splice up	-4.4%	-8.4%
Luc counter	2.8%	-0.1%
Tau ThT inhib	u	u

# (continued)
# Values in the order: L3MBTL1 inh	Lamin A splicing	RECQ1 inh	SMN2 splice up	Luc counter	Tau ThT inhib
(21) Cc1c(N=Nc2c(O)n(C)c(=O)n(C)c2=O)c(=O)n(-c2ccccc2)n1C
  -21.8%	-5.8%	9.1%	13.0%	-1.6%	u
(22) O=C(Cc1ccccc1)N1CCN(Cc2ccccn2)CC1
  1.2%	-11.3%	i	13.3%	-0.3%	2.6%
(23) CCN(CC)CCNCC(=O)Nc1ccc(Cl)cc1C(=O)c1ccccc1
  x	-1.4%	-4.4%	15.0%	-1.4%	-12.6%
(24) C=CC1CN2CCC1CC2C(O)c1ccnc2ccccc12 (centres undefined)
  x	x	-2.1%&25.0%	-11.4%&10.2%	3.5%&-5.3%	u
(25) CCOC(=O)c1c(C)c(P(=S)(N2CCOCC2)N2CCOCC2)n(C)c1C
  -4.7%	8.4%	i	-12.7%	-1.6%	-3.0%
(26) Clc1ccc2c(c1)C(c1ccccc1Cl)=NCc1nnc(Br)n1-2
  -7.3%	2.5%	-1.9%	-19.9%	-3.7%	-16.3%
(27) CSc1ccc(CN2CCN(C(=O)COc3cccc(C)c3)CC2)cc1
  -15.0%	-17.6%[46 µM]	i	-32.1%&-37.6%[inhibitor]	-3.5%	0.0%&-16.1%
(28) O=[N+]([O-])[N-][n+]1cnn(Cc2ccccc2)c1
  11.4%	34.8%[46 µM]	i	8.5%	-0.1%	5.7%

# 10 entries from above, ordered by count of non-hydrogen atoms, largest number first.
# Values in the order: L3MBTL1 inh	Lamin A splicing	RECQ1 inh	SMN2 splice up	Luc counter	Tau ThT inhib
(13) O=C(C1CCCCC1)N1CCC(c2nc3c(nnn3Cc3c(F)cccc3Cl)c(=O)[nH]2)CC1
  -22.8%	7.7%	-1.8%	-8.4%	-0.1%	u
(16) CCN(CC)S(=O)(=O)c1cc(NC(=O)C(C)N2CC=C(c3ccccc3)CC2)ccc1C (centres undefined)
  -9.2%	u	-5.7%	-59.7%[inhibitor]	0.9%	u
(14) Cc1ccc(OCC(=O)N2CCN(C3CCC(c4ccccc4)CC3)CC2)cc1 (centres undefined)
  -19.7%	-9.5%[46 µM]	i	-4.4%	2.8%	u
(18) Cc1ccc(OCC(=O)N2CCN(Cc3ccc4c(c3)OCO4)CC2)cc1
  -3.0%	-15.3%[46 µM]	i	-26.9%	2.6%	-11.9%
(27) CSc1ccc(CN2CCN(C(=O)COc3cccc(C)c3)CC2)cc1
  -15.0%	-17.6%[46 µM]	i	-32.1%&-37.6%[inhibitor]	-3.5%	0.0%&-16.1%
(19) CCCCNC(=O)Nc1ccc(C(O)(C(=O)OCC)C(F)(F)F)cc1 (centres undefined)
  5.6%	-11.4%	-2.9%	x	x	-5.7%
(26) Clc1ccc2c(c1)C(c1ccccc1Cl)=NCc1nnc(Br)n1-2
  -7.3%	2.5%	-1.9%	-19.9%	-3.7%	-16.3%
(22) O=C(Cc1ccccc1)N1CCN(Cc2ccccn2)CC1
  1.2%	-11.3%	i	13.3%	-0.3%	2.6%
(17) O=P(c1ccccc1)(c1ccccc1)N1CCCCC1
  1.0%	0.3%	-4.2%	x	x	3.7%
(28) O=[N+]([O-])[N-][n+]1cnn(Cc2ccccc2)c1
  11.4%	34.8%[46 µM]	i	8.5%	-0.1%	5.7%
